Compound activity as filed in PubChem.
TRPML1 inh: human mucolipin-1 channel inhibition | TRPML1-inducible cells, Ca2+ dye fluorescence, FDSS; hits give low values; inhibition of EC80 agonist-evoked calcium signal | activity change, negative = inhibition, % (concentration not given with the values) | actives 0.02% (n = 390,000); in the data active means activity change below about -50%; inconclusive means about -30% to -50%; inactive means above about -30%;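 also: stimulus is agonist 54-4 at its EC80 concentration; % is scaled to controls: 0 for no effect and ±100 for the full control effect; compound concentration not given in the record; the text of the record puts the active cut at -80%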
Target sequence (Q9GZU1 whole entry, looked up): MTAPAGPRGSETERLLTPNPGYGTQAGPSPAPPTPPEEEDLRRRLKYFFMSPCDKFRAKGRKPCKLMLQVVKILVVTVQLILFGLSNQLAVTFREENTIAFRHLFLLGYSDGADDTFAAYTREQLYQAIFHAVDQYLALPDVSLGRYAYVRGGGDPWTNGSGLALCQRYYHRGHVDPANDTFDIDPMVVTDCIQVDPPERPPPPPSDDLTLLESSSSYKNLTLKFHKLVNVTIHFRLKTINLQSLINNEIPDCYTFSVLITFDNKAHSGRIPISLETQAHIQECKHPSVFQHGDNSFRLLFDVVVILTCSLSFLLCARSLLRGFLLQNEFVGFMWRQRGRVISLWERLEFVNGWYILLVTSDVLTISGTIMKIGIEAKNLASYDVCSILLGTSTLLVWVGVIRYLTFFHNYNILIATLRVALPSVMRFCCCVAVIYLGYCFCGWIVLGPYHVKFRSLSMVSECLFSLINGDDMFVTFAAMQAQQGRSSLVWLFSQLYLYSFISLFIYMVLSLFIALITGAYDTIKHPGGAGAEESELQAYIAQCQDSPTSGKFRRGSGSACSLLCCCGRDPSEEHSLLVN
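Calcium fluorescence in TRPML1-DL cells induced overnight with Tet: a 110 s read after compound pin addition, then a 110 s antagonist read after challenge with 54-4 at 4 uM final (EC80).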
Menin-MLL FL inh: displaces fluorescein MLL peptide from human menin. FP activity change, % at 61.4 µM. 290,000 tested, under 10 active. AID 1766. Fluorescence polarization, fluorescein-MLL peptide displacement from menin; inconclusive = falling polarisation curve, or a change in total fluorescence; inactive = total fluorescence flat and polarisation flat or rising; no compound was filed as active; the % refers to the polarisation; negative = inhibition;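 also: % of control where 0% means no effect; inhibitors lower the polarisation; unlabelled MLL peptide was the positive control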
TRPV1 potentiator: human TRPV1 potentiation | TRPV1-expressing cells, Fluo-8 calcium influx, capsaicin EC20 potentiation; host cell line not named in the record; control for the full effect not named in the record | Q8NER1 | actives 0.02% (n = 320,000) | AID 540277 | potentiation, % at 8.33 µM; active means potentiation above 80%; inconclusive means 30% to 80%; inactive means below 30%; also: 0% is about no effect
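Fluo-8 calcium influx in TRPV1-expressing cells, kinetic read (ex 480/em 520 nm). Compound added and read 3 min for agonist activity, followed by capsaicin at EC20 final and 2 min further read for enhancement.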
PINK1 expr mod: modulators of PINK1 expression | actives 0.2% (n = 410,000) | PINK1 immunofluorescence, high-content cytometry, 24 h | Potency, µM (titrated, usually from 76.6 µM), for the others: at the top dose activation (PINK1 increase), actives largely listed as activators; active = well fitted activation curve with a large enough effect; inconclusive = small, poorly fitted or top-dose-only effect; inactive = flat fitted curve, though single readings scatter; cell line not stated here;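 also: potency is read from the fitted curve at half-maximal effect; % of control where 0% means no effect; nearly all actives have a fitted effect of over 65% in size; a mitochondrial uncoupler was the plate control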
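Readout is PINK1 immunofluorescence, quantified alongside mitochondrial, cell and nuclear markers by laser-scanning microplate cytometry. Cells from a stable line were exposed to compound titrations (5 concentrations) for 24 hours, with CCCP controls.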
ClpP mod: qHTS Assay for Activators of ClpP; ATP-dependent Clp protease proteolytic subunit (Bacillus subtilis (strain 168)), P80244; purified B. subtilis ClpP, FRET peptide cleavage, 20 min; Potency, µM (titrated, usually from 57.5 µM), inactives show at the top dose activity change, negative = active; actives 1.9% (n = 340,000); active = well fitted falling curve with a large enough effect; inconclusive = small, poorly fitted or top-dose-only effect; inactive = no such curve, though single readings can be large or run the other way; also: potency is read from the fitted curve at half-maximal effect; the source files actives as falling curves though it sought activators and does not explain the sign; nearly all actives have a fitted effect of over 65% in size; many hits overshoot -100%
Target sequence (P80244 whole entry, looked up): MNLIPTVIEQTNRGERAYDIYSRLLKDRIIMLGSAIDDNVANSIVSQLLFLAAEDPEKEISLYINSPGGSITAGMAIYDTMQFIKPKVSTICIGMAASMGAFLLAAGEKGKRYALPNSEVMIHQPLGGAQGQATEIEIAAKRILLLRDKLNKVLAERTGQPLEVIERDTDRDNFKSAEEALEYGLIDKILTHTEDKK
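Buffer: 100 mM Tris/HCl pH8, 100 mM KCl, 0.05% low protease BSA, 2.5% glycerol, 0.01% Tween-20. ClpP 10 microg/mL final; 20 min RT; delta FRET normalized to ADEP and DMSO controls.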
Sfp inh: blocks B. subtilis Sfp PPTase activity. Q9F4F7. Biochemical Sfp PPTase activity, qHTS. Potency, µM, without a hit: max response, negative = inhibition, actives largely listed as inhibitors. actives 3.5% (n = 310,000). AID 1490; active = well fitted inhibition curve with a large enough effect; inconclusive = small, poorly fitted or top-dose-only effect, or another doubt; inactive = no such curve, though single readings can be large or run the other way;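 also: the enzyme is Sfp with the accession as filed and its product quenches rhodamine fluorescence; potency is read from the fitted curve at half-maximal effect; 0% = enzyme reaction without inhibitor and -100% = no enzyme wells; top concentration of the series not given in the record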
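Reaction rates are the 30-min fluorescence difference (ex 525, em 598 nm) in wells containing 15 nM Sfp, 5 uM rhodamine-CoA and 12.5 uM BHQ-2-YbbR at pH 7.6 with 10 mM MgCl2.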
TRPML1 agonist: activates the human TRPML1 channel; actives 0.12% (n = 410,000); TRPML1-expressing cells, Ca2+ dye fluorescence, FDSS; host cell line not named in the record; reference of the full effect not given here; activation, % (test concentration not listed); AID 624414; in the data active = activation above about 50%; inconclusive = about 30% to 50%; inactive = below about 30%; also: 0% is about no effect; the text of the record puts the active cut at 80%
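TRPML1-DL cells, Tet-induced overnight (~16 h, 37 degrees C), loaded 45-90 min at room temperature with Ca8 no-wash calcium dye plus quencher. FDSS fluorescence: 10 s baseline, compound pin-transfer, 110 s agonist read, then EC80 54-4 (4uM final) and 110 s antagonist read.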
* marks the source's active call; other numbers are inactive results; ? = inconclusive; / = not tested or not shown; & = joins results of further samples; [ ] = remark or other dose.

Second line of a record – Sfp inh	TRPV1 potentiator	PINK1 expr mod	TRPML1 inh	Menin-MLL FL inh	ClpP mod	TRPML1 agonist
Oc1ccc(-c2nc3ncccn3c2Nc2ccc3c(c2)OCO3)cc1
 : -2%	1	-2.4%	-22	0.5	1.1%	2.2
CN1CCN(S(=O)(=O)c2cccc(C(=O)N(C)Cc3c(F)cccc3Cl)c2)CC1
 : /	-10	-0.7%	31	/	-13%	5.2
CC(C)CC(c1nnnn1CCc1ccccc1)N1CCC(C(N)=O)CC1 (stereo not drawn)
 : 3%	?	-2.7%	-23	-3.0	-1.2%	0.3
Oc1ccccc1-c1n[nH]c(=S)n1Cc1ccccc1
 : 9%	3	-1.1%	-12	8.0	0.4%	-1.6
COc1ccc(C(CNC(=O)CCNC(=O)c2ccccc2Cl)N2CCCC2)cc1 (stereo not drawn)
 : /	-2	-0.9%	7	/	-2.1%	-0.1
Cc1ccccc1CN1C(=O)c2ccccc2Sc2ccc(C(=O)NCc3cccs3)cc21
 : /	/	0.6%	60	/	-1.2%	0.2
O=C(c1ccccc1)C1CCN(C(=O)c2ccc(Cl)cc2)CC1
 : 9%	-24	-0.2%	/	-11	0.7%	/
O=S(=O)(Nc1ccc2c(c1)OCCO2)c1ccc2oc3ccccc3c2c1
 : -11%	16	2.6%[38.3 µM]	2	9.1	-1.7%	1.6
CCCOc1ccc(C(=O)Nc2ccc(S(=O)(=O)Nc3cc(C)nc(C)n3)cc2)cc1
 : 21%	-11	0.9%	33	1.4	0.3%	-0.8
CCC(=O)c1ccc(OCC(=O)NC2CCN(Cc3ccccc3)CC2)cc1
 : /	/	0.0%	13	/	-0.6%	3.2
CCn1cc(C(=O)NCCc2ccc(C)cc2)c(=O)c2cc(S(=O)(=O)N3CCc4ccccc4C3)ccc21
 : /	/	0.7%	7	/	-2.7%	-0.5
CC(=O)c1cnc2cc(C)nn2c1C
 : 2%	-8	0.7%	15	-0.8	-4.0%	0.4
CCc1ccc(C(=O)N2CCN(c3ccc(F)cc3)CC2)s1
 : 7%	-11	12%[38.3 µM]	17	-1.6	2.0%	1.0
Cc1ccc(C(=O)NC(C)CCc2ccccc2)cc1S(=O)(=O)N1CCOCC1 (stereo not drawn)
 : /	/	1.1%	20	/	28µM*	0.4
CC1Cc2ccccc2N1S(=O)(=O)c1cccc(C(=O)Nc2cccnc2)c1 (stereo not drawn)
 : -4%	-8	-0.3%	27	1.2	/	1.8
C#CCNC(=O)C1=C[C@@H](c2ccc(C(F)(F)F)cc2)C[C@@H](OCc2ccc(CO)cc2)O1
 : /	/	2.2%	-27	/	2.8%	-0.2
COc1ccc(CN2CCN(C(=O)C3CCN(S(=O)(=O)c4cccs4)CC3)CC2)c(OC)c1OC
 : 1%	5	-2.2%	7	0.5	/	1.9
O=C(NCC(=O)N(CC1CCCO1)C1(C(=O)NC2CCCC2)CCCCC1)c1ccccc1 (stereo not drawn)
 : 1%	2	-0.9%	8	-0.3	2.3%	-0.7
Cc1ccc(Nc2nc(N)nc(CSCCO)n2)cc1
 : 17%	6	-0.4%	-4	-0.7	1.8%	-0.3
CN1CCN(S(=O)(=O)c2cccc(C(=O)Nc3nc(-c4ccccc4)cs3)c2)CC1
 : 4%	?	2.7%	62	3.2	-1.6%	1.5
Cc1nc(SC(C)C(=O)Nc2ccccc2C)cc(-c2ccccc2)n1 (stereo not drawn)
 : /	/	-0.2%	4	/	-0.7%	2.3
CN(CC(=O)N1CCOCC1)C(=O)CSc1nc2ccccc2s1
 : ?	-1	1.6%	15	-0.2	/	-0.4
Cc1ccc(CSC2=Nc3ccccc3C3=NC(CC(=O)NCc4ccco4)C(=O)N23)cc1 (stereo not drawn)
 : 35µM*	-15	3.3%	14	3.8	1.6%	-0.7
O=C1NC[C@@H](CCCCN2CCN(CCC3CCCCC3)C(=O)C2=O)N(CC2CCCCC2)C1=O
 : /	/	0.9%	/	/	1.4%	-0.8
CCC(=O)c1cc2c(C)cc(=O)oc2c(C)c1OC
 : 27%	-8	1.1%[38.3 µM]	8	3.5	-27%	-0.3
CCN(CC)CCCNC(=O)C1CCN(S(C)(=O)=O)CC1
 : /	/	0.6%	6	/	2.7%	-0.5
O=C(O)c1cc(C2CC2)nc2ccccc12
 : 28%&-5%	-7	0.4%	1	1.1&13	-3.6%	-0.2
O=C(NC1CCCCCC1)C1c2ccccc2C(=O)N1Cc1ccc(F)cc1 (stereo not drawn)
 : /	/	1.2%	34	/	-1.1%	4.7
CC(C)CCN1C(=O)c2ccc(C(=O)NCC3CCCO3)cc2C1=O (stereo not drawn)
 : 6%	-6	2.7%	-16	0.3	0.6%	-0.7
O=C(NCc1ccc2c(c1)CCN2C(=O)c1ccc(F)cc1)c1ccc(Br)o1
 : /	/	6.2%	16	/	0.9%	-0.1
CN1CCN(C(=O)c2cc3nc(-c4ccccc4)cc(-c4ccccc4)n3n2)CC1
 : ?	0	3.1%	17	-1.8	-19%	-0.6
Cc1cccc(-c2noc(CCC(=O)Nc3ccc(C(N)=O)cc3)n2)c1
 : 8%	4	3.2%	9	0.1	0.9%	4.1
COC(=O)C(O)(NC(=O)NC(C)=O)C(F)(F)F (stereo not drawn)
 : 8%	23	-2.0%	9	0.5	-1.9%	0.6
CCC(Oc1ccccc1)C(=O)N1CCC(C(N)=O)CC1 (stereo not drawn)
 : 0%	/	2.0%	-11	1.3	1.0%	-0.7
COc1cc(-c2nc(C)c(C(C)=O)n2O)ccc1OCC(=O)Nc1ccc(F)cc1
 : 6%	-4	-0.4%	-18	0.6	-0.7%	0.9
COc1ccc(C)cc1NC(=O)c1nnn(Cc2cccc(F)c2)c1N
 : 13%	?	11%	-6	1.3	3.9%	0.7
CCOC(=O)Cc1ccc(NC(=O)N(C(C)C)C2CCN(C(C)=O)CC2)cc1
 : /	/	0.6%	-20	/	0.6%	-0.7
CCOC(=O)N1CCN(c2ccc(S(=O)(=O)N3CCOCC3)cn2)CC1
 : /	/	-3.5%	-10	/	28µM*	-0.1
CCCCn1c(N)c(N(CC)C(=O)c2cc(OC)cc(OC)c2)c(=O)[nH]c1=O
 : -6%	5	0.8%	36	-0.7	-0.1%	0.3
COc1ccc(CN(CC(=O)NCc2ccc(F)cc2)C(=O)CCC(=O)Nc2ccccn2)cc1
 : 0%	1	2.2%	-2	-1.7	/	0.1
COc1ccc(S(=O)(=O)Nc2cccc(S(=O)(=O)N3CCCC3)c2)cc1OC
 : /	1	1.0%	-8	/	-1.6%	-0.4
CCOC(=O)c1ccc(CNc2ncnc3nc[nH]c23)cc1
 : /	/	2.4%	/	/	-4.6%	-0.5
COc1ccc(CNC(=O)CSc2nnc(NC(=O)c3ccccc3F)s2)cc1
 : 19%	7	10%	-7	1.5	/	-0.5
CC(C)NC(=O)C(c1ccc(F)cc1)N(C(=O)CCC(=O)Nc1ccccn1)c1ccccc1F (stereo not drawn)
 : 20%	-5	2.3%	-12	-1.4	/	-0.2
O=S(=O)(NCc1cc(-c2ccccc2)no1)c1ccccc1
 : 11%	-19	-0.3%	1	-1.6	/	-0.5
Cc1ccc(OCC(=O)Nc2nnc(S(=O)(=O)N3CCc4ccccc43)s2)cc1
 : /	/	-0.8%	5	/	-1.3%	-0.2
Cc1ccc2oc(-c3ccc(C)c(NC(=O)/C=C/c4ccc(Cl)cc4)c3)nc2c1
 : /	/	1.2%	-13	/	-13%	1.0
COCCCNC(=O)c1c(N)n(/N=C/c2cccs2)c2nc3ccccc3nc12
 : 11%	3	4.1%	12	0.8	32µM*	1.8
O=C(NCc1cccc(Cl)c1)c1cnc(N2CCCCC2)c2ccccc12
 : /	/	1.8%	-24	/	32µM*	1.7
COc1cc(CCCN2CCNC[C@@H]2Cc2ccccc2)cc(OC)c1OC
 : /	-5	1.0%	1	/	0.3%	0.0
COCC(=O)Nc1cccc(Br)c1
 : 1%	9	0.6%	-6	3.3	0.1%	-0.2
COc1ccc(OC)c(CCNC(=O)CCCn2c(=O)c3cccn3c3ccc(F)cc32)c1
 : /	/	0.6%	-7	/	0.1%	3.2
C=C1CCN([C@@H](C)C(=O)OCc2cccc(C)c2)S(=O)(=O)c2ccccc21
 : -2%	-7	2.4%	68	0.9	-0.6%	1.6
COCCn1c(SCC(=O)NC(=O)NC2CCCCC2)nc2ccccc2c1=O
 : /	/	1.5%	4	/	1.7%	0.8
CCc1ccccc1N(CC(=O)Nc1cccc(N(C)S(C)(=O)=O)c1)S(C)(=O)=O
 : 16%	?	0.4%[38.3 µM]	1	0.0	-2.4%	0.1
CCc1nnc(N2CCN(c3ncnc4c3oc3ccccc34)CC2)s1
 : -2%	19	-0.1%	12	2.6	-0.3%	2.4
COc1ccc(N2CC(C(=O)NCCc3c[nH]c4ccccc34)CC2=O)cc1 (stereo not drawn)
 : -3%	-2	-1.1%	13	1.7	/	-0.4
CCCCC(=O)Nc1ccc(C(=O)Nc2ccc(S(=O)(=O)Nc3nccc(C)n3)cc2)cc1
 : 11%	5	2.8%	1	7.4	0.6%	-0.5
Cc1ccc(/C=C/C(=O)O)cc1S(=O)(=O)N1CCc2ccccc21
 : 1%	2	3.1%	-4	3.1	-1.7%	-0.6
CC(NC(=O)c1cccs1)c1ccc(Cl)cc1 (stereo not drawn)
 : /	/	0.8%	29	/	/	1.0
CCOC(=O)C1CCCN(C(=O)c2cc(CN3C(=O)c4ccccc4C3=O)ccc2OC)C1 (stereo not drawn)
 : /	-2	0.0%	-4	/	-0.5%	-0.6

As a working copy, 3 of the compounds above.
Second line of a record – Sfp inh	TRPV1 potentiator	PINK1 expr mod	TRPML1 inh	Menin-MLL FL inh	ClpP mod	TRPML1 agonist
COc1ccc(N2CC(C(=O)NCCc3c[nH]c4ccccc34)CC2=O)cc1 (stereo not drawn)
 : -3%	-2	-1.1%	13	1.7	/	-0.4
CCCCC(=O)Nc1ccc(C(=O)Nc2ccc(S(=O)(=O)Nc3nccc(C)n3)cc2)cc1
 : 11%	5	2.8%	1	7.4	0.6%	-0.5
Cc1ccc(/C=C/C(=O)O)cc1S(=O)(=O)N1CCc2ccccc21
 : 1%	2	3.1%	-4	3.1	-1.7%	-0.6
